NPYLR7 agonist: activates Aedes aegypti NPYLR7 receptor | 0.15% of 270,000 active | activation, % at 10 µM | HEK293T NPYLR7/Galpha15, GCaMP6s calcium fluorescence | AID 1259423; in the data active = activation above about 40%;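 note: 0% = vehicle and 100% = reference agonist at the receptor; some compounds past the cut are filed as inactive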
NPYLR7 agonist max-min: further read-out of NPYLR7 agonist, marked with its call; activation, %; measured here: Max-Min RFU normalised activation; some inactives read as strong as hits;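 span of the calcium signal over five minutes; 0% = vehicle and 100% = native peptide agonist; compound fluorescence can raise it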
Starred values were filed as active, the others as inactive; & = joins results of further samples. An excerpt (hit frequency here may not be typical).

Values run as follows: NPYLR7 agonist	NPYLR7 agonist max-min
COCCN(CC(=O)N(CCc1c[nH]c2ccccc12)Cc1ccccc1OC)C(=O)C1CCC1
→ 15.5	26.8
Cc1cc(C)cc(-c2nc3ccccn3c2NC(=O)CC(C)(C)C)c1
→ -3.9	-1.2
O=C(O)c1ccc(C2NC(=O)c3cc(Cl)ccc3O2)cc1 (stereo not given)
→ 6.7	3.3
CN(C)CCCN(C(=O)c1ccc2ncsc2c1)c1nc2ccc(Cl)cc2s1
→ 3.4	1.5
CC(C(=O)NCc1cccnc1N(C)Cc1ccccc1)n1ccnc1 (stereo not given)
→ 5.8	1.6
Cc1cccc(NC(=O)N(CC(=O)N2c3ccccc3-n3cccc3C2c2ccc(F)cc2)C(C)C)c1C (stereo not given)
→ 17.6	17.6
O=C(c1ccco1)N1CCCC(OCc2ccc(F)c(F)c2)C1 (stereo not given)
→ -3.6	-2.3
COc1cccc(-c2cc(-c3ccc(C(=O)NCCC#N)cc3)[nH]n2)c1
→ 5.6	9.2
c1ccc(CC2CN=C(N3CCOCC3)S2)cc1 (stereo not given)
→ -6.3	-6.0
CC(C)C(=O)Nc1ccc(S(=O)(=O)N2CCOC(c3ccccc3)C2)cc1 (stereo not given)
→ -9.1	-12.1
O=C1c2ccccc2C(Cc2ccncc2)(Cc2ccncc2)c2ccccc21
→ -15.6	-20.0
CN(C)CCOC(c1ccccc1)c1ccccc1 (tested in a mixture with another compound)
→ -6.3&-0.7	-12.7&-5.2
Cc1ccc(-c2ccc(C3=CC(C)(C)OC3=O)cc2)cc1
→ 0.0	-0.5
CCOC(=O)C1(CCCc2ccccc2)CCCN(C(=O)c2ocnc2C)C1 (stereo not given)
→ 10.8	6.5
COc1cc(CC(=O)N2CCOC(COc3ccccc3OC)C2)cc(OC)c1 (stereo not given)
→ 23.3	32.2
COc1ccc2[nH]c(C(=O)N3CC[C@H]4CC[C@@H](C3)N4)cc2c1
→ 3.2	1.0
CC(=O)c1cc(C(=O)N2CCN(CC3CCCO3)CC2)n(C)c1 (stereo not given)
→ -1.5	-5.3
COc1cccc(/C=C2\SC(=S)N(c3cccc(F)c3)C2=O)c1O
→ -2.0	2.1
N#Cc1ccccc1S(=O)(=O)N1CCN(C(=O)CCc2nc3ccccc3c(=O)[nH]2)CC1
→ 7.8	10.2
Cc1cc(C)c(C(=O)N(C)Cc2nc3ccc(Cl)cc3[nH]2)c(=O)[nH]1
→ 1.2	-1.9
COc1cc(CO)ccc1OCc1nnc(-c2ccc(Br)cc2)o1
→ -0.1	15.6
COc1ccc(C(O)C(=O)N2CCc3c(nc(C)nc3N3CCCC3)C2)cc1 (stereo not given)
→ -0.5	-2.7
CC(C)NC(=O)C(C#N)=Cc1ccc(C#N)cc1
→ 1.9	0.6
O=C(NC1CCCCC1)O/N=C\c1ccc(F)cc1
→ 2.6	1.1
CCCN(CCC(=O)NCCOC)c1nc(CC)nc2cc(Cl)ccc12
→ -10.5	1.0
N[C@H]1CN[C@H](C(=O)N[C@H]2CCc3ccccc32)C1
→ 2.0	-1.8
COc1ccc(/C(C)=N\OCC(=O)N2CCOC(COc3ccccc3OC)C2)cc1 (stereo not given)
→ -1.6	13.8
Nc1nc(SCC(=O)NCCCO)nc2sc3c(c12)CCC3
→ 5.4	7.0
CCNc1nc(NC(C)C)nc(SCCOc2ccccc2)n1
→ 6.4	12.2
C[C@H](C(=O)NCC1CCCCC1)N1Cc2ccc(N3CCOCC3)nc2C1=O
→ 6.0	2.5

The list goes on, starting with the last two of the part before.
Values run as follows: NPYLR7 agonist	NPYLR7 agonist max-min
CCNc1nc(NC(C)C)nc(SCCOc2ccccc2)n1
→ 6.4	12.2
C[C@H](C(=O)NCC1CCCCC1)N1Cc2ccc(N3CCOCC3)nc2C1=O
→ 6.0	2.5
CC1CCCCC1NC(=O)C1COc2ccccc2O1 (stereo not given)
→ 10.8	7.7
CCCCOc1ccc(NC(=O)C2OC3OC(C)(C)OC3C3OC(C)(C)OC23)cc1 (stereo not given)
→ 2.6	9.6
CCCC(=O)N1CCN(c2ncnc3c2nnn3CC)CC1
→ 0.7	18.0
COc1ccc(CCN2C(=O)NC(C)(C3CCN(C(=O)c4ccc5ncccc5c4)CC3)C2=O)cc1 (stereo not given)
→ 1.9	-1.9
OCc1ccc(CN2CCC(n3cc(-c4cccnc4)nn3)CC2)o1
→ -2.1	0.1
CCCCN1C(=O)CCc2cc(NC(=O)c3ccc(Cl)cc3)ccc21
→ -6.2	-5.4
COc1cccc(OC)c1C(=O)Nc1ccc(-n2nc(OCC(C)C)nc2-c2ccccc2C)cc1
→ 13.2	20.3
CCCNCc1sccc1C
→ -2.7	-2.0
O=[N+]([O-])c1ccc(-c2nc(C=Nc3cccnc3)c(O)o2)cc1
→ -7.3	-11.7
CC(C(=O)O)n1ccc2c(cnc3ncnn32)c1=O (stereo not given)
→ 5.1	9.6
COc1ccccc1NC(=O)N(Cc1ccc(F)cc1)Cc1ccc(OC)c(OS(=O)(=O)c2ccc(NC(C)=O)cc2)c1
→ 1.0	4.1
CN(C)C(CNC(=O)NC(C)(C)C)c1ccsc1 (stereo not given)
→ 11.4	6.3
CCNc1cc(C)nc(N2CCN(C(=O)Nc3ccccc3)CC2)n1
→ 9.2	0.8
COCCNC(=O)CNS(=O)(=O)c1ccc(F)cc1Cl
→ 2.0	0.2
Cc1cc(C(=O)N2CCC(Oc3ccc(C(=O)NC4CCCC4)cc3Cl)CC2)n(C)n1
→ 14.5	6.7
COc1cccc(CN(CC2CC(c3ccc(Cl)cc3)=NO2)C(=O)Nc2ccccc2OC)c1 (stereo not given)
→ 27.8	29.8
Cc1ccc(CN(Cc2cccnc2)CC2CCCN(C3CCCCC3)C2)s1 (stereo not given)
→ 1.4	-4.8
COc1cn(CC(=O)NCc2ccc3c(c2)OCO3)c(CSc2nccn2C)cc1=O
→ -4.9	-10.5
O=C(CSc1nc(C(F)(F)F)cc(=O)[nH]1)NCc1ccco1
→ -4.3	-5.6
Cc1cc(C2CCCN2Cc2cccc(C(=O)Nc3cccnc3)c2)no1 (stereo not given)
→ -8.8	-11.9
CC(=O)Nc1ccc(CNc2nc3cc(-c4ccsc4)sc3c(=O)n2C)cc1
→ 6.5	1.6
CN1CCNC(=O)C12CCN(C(=O)Cc1cccc(C(F)(F)F)c1)CC2
→ 8.2	3.0
O=C(NCCn1ncc2c(N3CCOCC3)ncnc21)C1(c2cccs2)CCCC1
→ 0.0	-1.9
COc1ccc(OC)c(CN2CCN(Cc3nc4ccc(Cl)cc4c(=O)[nH]3)CC2)c1
→ 0.8	3.5
O=C1OC(c2ccccc2)c2ccc3ccccc3c21 (stereo not given)
→ -4.3	-4.4
COCCCN(CC(=O)N1CCc2sccc2C1c1ccccc1C)C(=O)CCl (stereo not given)
→ 10.2	17.8
Cc1nc2ccccc2nc1N1CCN(S(=O)(=O)c2ccccc2C#N)CC1
→ 25.3	16.8
CSc1ncc(CN2CCCC(C(=O)Nc3cccc(-c4cccc(C)c4)c3)C2)cn1 (stereo not given)
→ 13.3	8.3
O=C(CCNS(=O)(=O)c1ccc(F)c(Cl)c1)NC1=NCCS1
→ 0.6	1.9
CC1(C)Cc2cc(CNC(=O)C3CCC(=O)N(CCc4ccccn4)C3)ccc2O1 (stereo not given)
→ 4.1	0.0

Next results.
Values run as follows: NPYLR7 agonist	NPYLR7 agonist max-min
O=C(CCc1ccccc1O)N1CCN(c2ccccc2F)CC1
→ 9.0	8.4
O=C(NC1CC1)C(c1ccccc1)N1CCN(c2ccccc2Cl)CC1 (stereo not given)
→ -14.2	-14.5
O=c1[nH]c(CN(CCO)Cc2nc3sccc3c(=O)[nH]2)nc2sccc12
→ 38.6	51.0
CCOc1ccc(-c2n[nH]c(=S)o2)cc1
→ 3.6	10.9
COCC(=O)NNS(=O)(=O)c1ccc([N+](=O)[O-])cc1
→ 3.0	1.8
Cc1ccc(C(=O)N2C(C(=O)N3CCCC3)COC23CCN(C(=O)c2cccc([N+](=O)[O-])c2)CC3)cc1 (stereo not given)
→ 0.5	9.0
O=C(CSc1nnc2[nH]c(=O)cc(-c3ccccc3)n12)Nc1ccccc1
→ -24.5	-17.9
CC(NC=CC(=O)C(F)(F)F)C(=O)OC(C)(C)C (stereo not given)
→ -1.1	-2.0
Cn1c(=S)[nH]c2scc(-c3cccs3)c2c1=O
→ -1.0	5.6
COc1ccccc1N1CCN(C(=O)c2cc(-c3ccc(F)cc3)nc3cc(C(C)(C)C)nn23)CC1
→ 1.6&-3.8	6.5&6.6
C=C(C)C(=O)N(C)c1ccc(-c2onc3c2CCc2ccccc2-3)cc1
→ -2.2	-0.5
FC(F)(F)CC[n+]1cccc2ccccc21
→ 7.3	7.8
C=c1cc(C)n(CC(=O)Nc2cccc(SC)c2)c(=O)c1=C1N=C(c2ccccc2)NO1
→ -0.3	-4.3
COc1ccccc1N1CCN(C2CCCN(S(=O)(=O)Cc3ccccc3)C2)CC1 (stereo not given)
→ 10.2	10.0
CCc1nnc(-c2cc3ccccc3n2Cc2ccccc2)o1
→ 8.2	6.8
Cc1cc2occ(CC(=O)N3CCN(C(=O)N(C)C)CC3)c2cc1C(C)C
→ 1.9	-0.7
COc1cc(OC)cc(C(=O)N2CCCC(Nc3cc(C)ccc3OC)C2)c1 (stereo not given)
→ -3.0	2.5
Cc1noc(COCC(=O)Nc2ccc(Cl)cc2Cl)n1
→ 6.8&-3.7	7.2&-5.8
O=C1CC2CS(=O)(=O)CC2N1c1ccc(OC(F)(F)F)cc1 (stereo not given)
→ 1.0	16.2
COc1cc2c(cc1OC)C(c1ccc(F)cc1)N(C(=O)c1c(-c3c(Cl)cccc3Cl)noc1C)CC2 (stereo not given)
→ 8.0	6.1
COc1ccc(-n2c(O)c(Cc3ccccc3)c(=O)n3nc(-c4ccccc4)c(=O)cc23)cc1
→ 1.9	8.2
C#CCO[C@@H]1CCN2C(=O)[C@@H]3C[C@@H](O)CN3C(=O)[C@@H]2C1
→ -8.6	-13.4
O=C(Cn1c(SCCOc2ccccc2)nc2ccccc21)N1CCOCC1
→ 1.0	-1.3
CC(C)(C)NC(=O)C(=O)NCC1CCCO1 (stereo not given)
→ 6.4	5.8
CCOC(=O)c1cc(C2CC2)n(C2CCN(C(=O)Cc3ccc(OC)c(OC)c3)CC2)n1
→ 0.8	-1.4
CC(C(=O)NC1CC1)N1CCOC(c2cccc(Br)c2)C1 (stereo not given)
→ 4.8	2.6
CC(NC(=O)CN1CCN(Cc2ccc(Br)s2)CC1)c1ccccc1 (stereo not given)
→ -0.3	25.7
CC12CS(=O)(=O)CC1SC(=S)N2c1cccc(O)c1 (stereo not given)
→ 3.2&7.1	1.0&-0.2
COc1ccccc1/C=N\N=C1/NC(=O)C(CC(=O)Nc2cccc(C)c2C)S1 (stereo not given)
→ 4.4	3.2
CNc1nc(Nc2nc(C)cc(C)n2)nc(OCC(F)(F)F)n1
→ -5.4	-8.8

Next compounds:
Structure	NPYLR7 agonist	NPYLR7 agonist max-min
Cc1cccc(-n2ncc(C(=O)NCCN3C(=O)CSC3=O)c2N)c1C	0.5	3.6
Cc1nc(CSc2nnc(-c3cccs3)n2C2CC2)cs1	-1.1	5.4
CCOc1cc(/C=C/C(=O)N2CCOCC2C#N)ccc1OC (stereo not given)	0.3	-1.6
CCn1cc(NC(=O)CCc2cc(Cl)cs2)cn1	6.9	4.0
O=C(NCCc1cnc[nH]1)c1cccnc1N1CCCC1c1ccncc1 (stereo not given)	5.4	6.9
Cc1ccc(Cl)cc1N=Nc1c(C)[nH]n(-c2nc(-c3ccc(Br)cc3)cs2)c1=O	-5.7	-8.8
CSc1nn(CC(=O)Nc2ccc(C)cc2)c(N)c1-c1nc(-c2ccc3c(c2)OCO3)no1	10.8	2.6
CC1CCN(C(=O)CSc2ccc(NC(=O)C3CC3)nn2)CC1	-3.9	-4.5
CC1CN(C(=O)Cn2cc(SCC(=O)Nc3ccc4c(c3)OCCO4)c3ccccc32)CC(C)O1 (stereo not given)	-3.5	-9.0
CCn1cc(C(=O)N2CCN(C(=O)C(C)Oc3ccccc3)CC2)c2nn(-c3ccccc3)c(=O)c-2c1 (stereo not given)	0.3	-1.5
Cc1nn2c3c(nnc2c1-c1cccc(Cl)c1)C(=O)CC(C)(C)C3	-10.8	-18.1
CC(C)c1cc(Cn2nc(C3CCCNC3)n(-c3ccccc3)c2=O)on1 (stereo not given)	0.8	-1.3
COc1cc(CN2CCCn3cccc3C2c2ccoc2)cc(OC)c1 (stereo not given)	6.0	8.8
CCC1CN(CC(=O)NCC(c2ccccn2)N2CCOCC2)Cc2cc(OC)ccc2O1 (stereo not given)	1.4	-1.9
CCOC(=O)C1CCN(C(=O)c2cn(C)c3c(=O)n(-c4ccc(Cl)cc4)c(=O)[nH]c23)CC1	3.0	2.2
O=C(CN1CCOCC1)NCCC12CC3CC(CC(C3)C1)C2	4.4	2.3
CCOC(=O)c1sc2nc(C(C)Sc3nnc(C)s3)[nH]c(=O)c2c1C (stereo not given)	1.5	1.3
N#CCCCOc1cccc(NC(=O)Nc2ccc(CC#N)cc2)c1	1.5	-0.4

In the list so far, 5 contain a tert-butyl group.
Structure	NPYLR7 agonist	NPYLR7 agonist max-min
Cc1cc(C)cc(-c2nc3ccccn3c2NC(=O)CC(C)(C)C)c1	-3.9	-1.2
CN(C)C(CNC(=O)NC(C)(C)C)c1ccsc1 (stereo not given)	11.4	6.3
CC(NC=CC(=O)C(F)(F)F)C(=O)OC(C)(C)C (stereo not given)	-1.1	-2.0
COc1ccccc1N1CCN(C(=O)c2cc(-c3ccc(F)cc3)nc3cc(C(C)(C)C)nn23)CC1	1.6&-3.8	6.5&6.6
CC(C)(C)NC(=O)C(=O)NCC1CCCO1 (stereo not given)	6.4	5.8

An excerpt of these results, as labelled records.
> COc1cc(CN2CCCn3cccc3C2c2ccoc2)cc(OC)c1 (stereo not given)
  NPYLR7 agonist: 6.0; NPYLR7 agonist max-min: 8.8
> CCC1CN(CC(=O)NCC(c2ccccn2)N2CCOCC2)Cc2cc(OC)ccc2O1 (stereo not given)
  NPYLR7 agonist: 1.4; NPYLR7 agonist max-min: -1.9

Screens: PubChem, Fisher Drug Discovery Resource Center
